HNF4A DNA FP – change in binding of human HNF4 alpha to DNA. P41235. HNF4a-FITC DNA binding, fluorescence polarization, 1 h. activity change, % at 10 µM. 360,000 compounds, 0.3% hits. AID 1224865; in the data active = activity change above about 30%, passing the limit was not always enough;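 note: controls were the assay level and a saturating level of protein; the project sought stronger binding though the title names inhibitors; some compounds called inactive have numbers as strong as hits; positive values seem to mean higher polarization but the record does not say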
Target sequence (P41235 whole entry, looked up): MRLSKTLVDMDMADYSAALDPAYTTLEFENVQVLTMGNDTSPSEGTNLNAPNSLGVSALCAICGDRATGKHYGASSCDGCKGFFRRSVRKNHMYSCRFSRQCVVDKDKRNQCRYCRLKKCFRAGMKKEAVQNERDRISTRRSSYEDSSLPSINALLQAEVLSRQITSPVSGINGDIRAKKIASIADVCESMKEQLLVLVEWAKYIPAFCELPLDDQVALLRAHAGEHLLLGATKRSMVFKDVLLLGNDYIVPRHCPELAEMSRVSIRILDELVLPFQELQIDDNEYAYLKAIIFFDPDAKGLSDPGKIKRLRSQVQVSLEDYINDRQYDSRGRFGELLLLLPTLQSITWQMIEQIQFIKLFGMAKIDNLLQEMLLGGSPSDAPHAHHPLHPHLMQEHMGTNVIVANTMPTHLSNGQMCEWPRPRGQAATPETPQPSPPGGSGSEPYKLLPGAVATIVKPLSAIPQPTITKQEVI
FGF22 binding – shifts melting point of recombinant human FGF22; 340,000 compounds, 1.5% hits; calls only at 9.99 µM; recombinant FGF22 thermal shift, SYPRO orange fluorescence; percent of sucrose octasulfate shift, DMSO zero; Q9HCT0;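 active = melting point raised past a set limit in the mean and every replicate; inconclusive = no clear call; three in four hits are not shown here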
Target sequence (Q9HCT0 whole entry, looked up): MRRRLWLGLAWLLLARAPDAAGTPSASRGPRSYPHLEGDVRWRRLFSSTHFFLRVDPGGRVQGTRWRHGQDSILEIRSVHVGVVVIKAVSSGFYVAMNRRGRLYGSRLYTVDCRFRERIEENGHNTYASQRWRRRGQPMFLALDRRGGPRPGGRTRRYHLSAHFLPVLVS
Ecoli rRNA inh – selective bacterial rRNA inhibition in E. coli. GFP signal change (wild-type ribosome), % (no concentration beside the values). E. coli WT GFP vs humanized-ribosome RFP mutants, fluorescence, 24 h; hits give low values; DMSO median 0, no signal -100. 350,000 compounds, 1.6% hits;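 active = significant combined selectivity score with lowered wild-type GFP, culture density cut under 30%, mutant RFP and density less affected; inactive = any of these conditions unmet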; note: one replicate is shown; some compounds called inactive have numbers as strong as hits
Ecoli growth – inhibitors of Escherichia coli growth; 330,000 compounds, 0.21% hits; OD600, 23 h; hits give low values; OD600 absorbance (concentration not given with the values);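 active = OD600 absorbance below the run mean of sample wells minus 3.6 SD, in any replicate, cut at about 0.56 in these data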;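 note: stock transfer was 300 nL into about 60 µL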
Vif TR-FRET – HIV-1 Vif–A3G interaction blockers – biochemical, TR-FRET, GST-Vif 1-94, biotin-A3G peptide, dose response retest, primary screen (AID 1117319); TR-FRET GST-Vif / biotin-A3G peptide binding; higher % means a stronger effect; test concentration not given here; strong numbers were not always called active; one-dose inhibition, %; IC50 in µM for titrated hits; 260,000 compounds, 0.57% hits;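 active = above the screen mean plus three standard deviations and confirmed in dose response; inconclusive = results disagree or hit not tested in dose response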;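 note: Vif residues 1-94 fused to GST binding biotinylated APOBEC3G peptide 110-148; 0% = full assay without inhibitor and 100% = GST in place of GST-Vif; retest series ran down from 100 µM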
ALR H2O2 inh – blocks human ALR sulfhydryl oxidase activity | P55789 | purified ALR, DTT oxidation, H2O2 HRP-luminol luminescence | inhibition, % (concentration not given with the values) | 290,000 compounds, 3.8% hits | AID 485317;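 active = mean and each replicate at 75% or more; inconclusive = only one of the two met; inactive = neither met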;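 note: stock transfer was 7.5 nL into about 7.5 µL; 0% = neutral wells and 100% = wells with inactivated enzyme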
MLL AF4-AF9 inh – inhibitors of human MLL-AF4/AF9 interaction | inhibition, % at 10 µM | 350,000 compounds, 0.47% hits | AlphaScreen, biotin-AF4 peptide binding to FLAG-AF9;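 active = every replicate reaching a set inhibition limit, whatever the replicate mean, cut at about 25% in these data; inconclusive = mean inhibition reaches that limit but some replicates miss it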;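 note: 0% = plate neutral control median and 100% = total signal loss; the record names both 10 and 1 µM as test concentration; the first replicate is given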
Ecoli rRNA inh OD600 – further read-out of Ecoli rRNA inh, marked with its call; OD600 change, %; measured here: OD600 growth;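 optical density of the mix in the first replicate; 0 = DMSO median and -100 = no signal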
Ecoli rRNA inh RFP – recorded beside Ecoli rRNA inh, whose call it bears; RFP signal change, %; measured here: RFP humanized mutant strains;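 first replicate; 0 = DMSO median and -100 = no signal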
Active calls of the source: *; i = inactive; ? = inconclusive; . = not tested or not shown. This is a subset; the hit share may differ from the screen's.

1) CC(C)OCCCN(C)C1CCN(S(=O)(=O)c2csc(C(N)=O)c2)CC1
2) COc1ccc(NS(=O)(=O)/C=C/c2ccccc2)cc1
3) CN(C)c1cccc(CNC(=O)c2csc(COCCO)n2)c1
4) CO[C@@H]1CN(C)C(=O)c2cc(NS(=O)(=O)CC(F)(F)F)ccc2OC[C@@H](C)NC[C@@H]1C
5) Cc1nc2c(C)c(C)c(C)c(C)c2nc1C
entry no.	1	2	3	4	5
HNF4A DNA FP	-0.8	1.8	-4.1	.	1.4
FGF22 binding	i	.	i	i	i
Ecoli rRNA inh	0	.	-4	1	6
Ecoli rRNA inh OD600	10	.	6	-1	2
Ecoli rRNA inh RFP	-1.5	.	-2.6	-3.8	-3.1
Ecoli growth	0.68	0.66	.	.	0.68
Vif TR-FRET	.	6%	.	.	-7%
ALR H2O2 inh	0	-3	.	.	1
MLL AF4-AF9 inh	2.1	.	-0.2	-4.9	-1.6

6) COc1cc(C(CCN2CCCCC2)c2c(OC)cc(OC)c3c(-c4ccccc4)cc(=O)oc23)cc(OC)c1OC (stereo not drawn)
7) CCCCNc1c(CCc2ccccc2)nc2nc(C)cc(C)n12
8) CC(=O)c1cc2c(cc1NC(=O)CSc1ncccn1)OCO2
9) CC(=O)c1cc(-c2ccccc2)n(CC(=O)N2CCC(N3CCCCC3)CC2)c1C
10) COC(=O)c1c(NC(=O)CCC(=O)O)sc2c1CCCCC2
entry no.	6	7	8	9	10
HNF4A DNA FP	-1.2	17	0.2	2.0	3.4
FGF22 binding	i	i	i	.	i
Ecoli rRNA inh	-13	6	5	.	-6
Ecoli rRNA inh OD600	-44	7	1	.	-10
Ecoli rRNA inh RFP	50	1.8	0.3	.	-1.3
Ecoli growth	0.71	.	.	0.7	0.67
Vif TR-FRET	5%	.	.	5%	.
ALR H2O2 inh	.	.	.	.	.
MLL AF4-AF9 inh	?	0.7	-1.1	.	-2.0

11) CCOC(=O)c1c(C)[nH]c(C)c1C(=O)COC(=O)c1ccc(OC)c(OC)c1
12) CCCc1cc(=O)oc2c(C)c(OCC(=O)c3ccc(N4CCCC4)cc3)ccc12
13) O=C(N/N=C/C1C(c2ccccc2)C1(Cl)Cl)c1cccc(Br)c1 (stereo not drawn)
14) CN(C)c1ccc(C(CNC(=O)c2ccc(C#N)cc2)c2c[nH]c3ccccc23)cc1 (stereo not drawn)
15) Cn1c(=O)cc(OCC(=O)N2CCN(c3cccc(C(F)(F)F)c3)CC2)c2ccccc21
entry no.	11	12	13	14	15
HNF4A DNA FP	1.1	-3.5	-3.6	-2.4	1.4
FGF22 binding	.	.	.	i	.
Ecoli rRNA inh	-4	.	.	-6	.
Ecoli rRNA inh OD600	5	.	.	-10	.
Ecoli rRNA inh RFP	0.2	.	.	2.7	.
Ecoli growth	0.68	0.78	.	0.7	0.7
Vif TR-FRET	-5%	-5%	2%	5%	-4%
ALR H2O2 inh	16	.	-5	12	0
MLL AF4-AF9 inh	0.6	.	.	16	.

16) CCCC(=O)OC[C@H]1CN(C2CCCC2)S(=O)(=O)c2c(Oc3ccc(C(C)(C)C)cc3)cccc2O1
17) COCCNC(=O)CN(c1ccc(OC)c(OC)c1)S(=O)(=O)c1ccc(C)cc1
18) C[C@H](CO)N1C[C@H](C)[C@@H](CN(C)C(=O)NC2CCCCC2)OCc2ccccc2-c2ccccc2C1=O
19) O=c1cc(-c2ccccc2Cl)oc2ccc([N+](=O)[O-])c(O)c12
20) O=C(CCc1nnc(-c2ccc3c(c2)OCO3)o1)NC(c1cccnc1)C(F)(F)F (stereo not drawn)
entry no.	16	17	18	19	20
HNF4A DNA FP	.	-3.7	.	-1.2	1.1
FGF22 binding	i	.	i	i	i
Ecoli rRNA inh	15	.	-1	1	11
Ecoli rRNA inh OD600	13	.	4	2	13
Ecoli rRNA inh RFP	-2.3	.	2.5	8.3	-0.3
Ecoli growth	.	0.82	.	0.69	0.66
Vif TR-FRET	.	3%	.	?	-1%
ALR H2O2 inh	.	-5	.	14	.
MLL AF4-AF9 inh	-2.1	.	-3.0	-1.1	-1.3

21) COCCN(C(=O)c1ccc(N2CCCC2=O)cc1)c1c(N)n(Cc2ccccc2)c(=O)[nH]c1=O
22) NC(CS(=O)O)C(=O)O (stereo not drawn)
23) COc1ccc(C(=O)C2CCCN(C(=O)c3cccs3)C2)cc1F (stereo not drawn)
24) COc1ccccc1CNC(=O)c1csc2c1CCCC2
25) Cc1c(OC(C(=O)O)c2ccccc2)ccc2c3c(c(=O)oc12)CCC3 (stereo not drawn)
entry no.	21	22	23	24	25
HNF4A DNA FP	1.6	0.4	3.4	3.7	-1.1
FGF22 binding	i	i	.	i	i
Ecoli rRNA inh	12	7	-16	10	12
Ecoli rRNA inh OD600	13	16	-20	2	12
Ecoli rRNA inh RFP	0.4	0.8	-1.6	4.0	3.8
Ecoli growth	0.69	0.66	0.67	0.72	0.67
Vif TR-FRET	.	.	.	11%	-1%
ALR H2O2 inh	3	2	-1	-12	.
MLL AF4-AF9 inh	0.2	-0.1	-10	-2.7	-15

Excerpt: entries 17–20
17) COCCNC(=O)CN(c1ccc(OC)c(OC)c1)S(=O)(=O)c1ccc(C)cc1
18) C[C@H](CO)N1C[C@H](C)[C@@H](CN(C)C(=O)NC2CCCCC2)OCc2ccccc2-c2ccccc2C1=O
19) O=c1cc(-c2ccccc2Cl)oc2ccc([N+](=O)[O-])c(O)c12
20) O=C(CCc1nnc(-c2ccc3c(c2)OCO3)o1)NC(c1cccnc1)C(F)(F)F (stereo not drawn)
entry no.	17	18	19	20
HNF4A DNA FP	-3.7	.	-1.2	1.1
FGF22 binding	.	i	i	i
Ecoli rRNA inh	.	-1	1	11
Ecoli rRNA inh OD600	.	4	2	13
Ecoli rRNA inh RFP	.	2.5	8.3	-0.3
Ecoli growth	0.82	.	0.69	0.66
Vif TR-FRET	3%	.	?	-1%
ALR H2O2 inh	-5	.	14	.
MLL AF4-AF9 inh	.	-3.0	-1.1	-1.3

Additional structures.
26) O=C(N/N=C/c1cc([N+](=O)[O-])ccc1O)C1CC1
27) CCCc1n[nH]c2c1/C(=N\OCC)CC(C)(C)C2
28) C[C@@H]1CCCCO[C@H](CN(C)C(=O)c2ccccc2)[C@@H](C)CN([C@@H](C)CO)C(=O)c2cc(NC(=O)c3ccccc3)ccc2O1
29) Cc1ccsc1C1Nc2ccccc2-c2nc3ccccc3n21 (stereo not drawn)
30) C[C@H]1CN([C@@H](C)CO)C(=O)c2cccc(NC(=O)c3ccncc3)c2O[C@H]1CN(C)C
31) COc1cccc2c(=O)c(C(=O)O)c[nH]c12
32) CCN(CC(=O)NC(C)(C)C)C(=O)c1ccc2c(c1)S(=O)(=O)c1ccccc1C2=O
entry no.	26	27	28	29	30	31	32
HNF4A DNA FP	0.3	-2.0	.	0.8	.	-2.7	4.8
FGF22 binding	i	i	i	i	i	i	.
Ecoli rRNA inh	0	9	-15	.	-1	-28	.
Ecoli rRNA inh OD600	8	7	1	.	-3	-2	.
Ecoli rRNA inh RFP	9.3	2.4	1.7	.	-0.7	-12	.
Ecoli growth	.	.	.	0.69	.	0.65	0.72
Vif TR-FRET	.	-2%	.	.	.	?	1%
ALR H2O2 inh	-5	1	.	.	.	5	-5
MLL AF4-AF9 inh	-9.9	-2.9	-6.2	-4.1	-3.0	5.7	-12

Complete entries, quoted from the list. Screens in order: HNF4A DNA FP, FGF22 binding, Ecoli rRNA inh, Ecoli rRNA inh OD600, Ecoli rRNA inh RFP, Ecoli growth, Vif TR-FRET, ALR H2O2 inh, MLL AF4-AF9 inh
CCN(CC(=O)NC(C)(C)C)C(=O)c1ccc2c(c1)S(=O)(=O)c1ccccc1C2=O is entered as 4.8, ., ., ., ., 0.72, 1%, -5, -12
C[C@H]1CN([C@@H](C)CO)C(=O)c2cccc(NC(=O)c3ccncc3)c2O[C@H]1CN(C)C is entered as ., i, -1, -3, -0.7, ., ., ., -3.0
O=C(N/N=C/c1cc([N+](=O)[O-])ccc1O)C1CC1 is entered as 0.3, i, 0, 8, 9.3, ., ., -5, -9.9

Source: PubChem BioAssay (several laboratories)
